RecA intein inh: Mtb RecA intein splicing inhibitors, primary screen, biochemical, fluorescence, HTS | cell-free RecA intein splicing | inhibition, %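 (about 9 µM by stock and volumes)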 | 290,000 tested, 0.75% active | AID 2221, 2009; in the data active = inhibition above about 30%; inconclusive = no clear call, values can overlap the other calls;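 note: 0% = vehicle wells and 100% = reference inhibitor control wells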
Target sequence (P9WHJ3 whole entry, looked up): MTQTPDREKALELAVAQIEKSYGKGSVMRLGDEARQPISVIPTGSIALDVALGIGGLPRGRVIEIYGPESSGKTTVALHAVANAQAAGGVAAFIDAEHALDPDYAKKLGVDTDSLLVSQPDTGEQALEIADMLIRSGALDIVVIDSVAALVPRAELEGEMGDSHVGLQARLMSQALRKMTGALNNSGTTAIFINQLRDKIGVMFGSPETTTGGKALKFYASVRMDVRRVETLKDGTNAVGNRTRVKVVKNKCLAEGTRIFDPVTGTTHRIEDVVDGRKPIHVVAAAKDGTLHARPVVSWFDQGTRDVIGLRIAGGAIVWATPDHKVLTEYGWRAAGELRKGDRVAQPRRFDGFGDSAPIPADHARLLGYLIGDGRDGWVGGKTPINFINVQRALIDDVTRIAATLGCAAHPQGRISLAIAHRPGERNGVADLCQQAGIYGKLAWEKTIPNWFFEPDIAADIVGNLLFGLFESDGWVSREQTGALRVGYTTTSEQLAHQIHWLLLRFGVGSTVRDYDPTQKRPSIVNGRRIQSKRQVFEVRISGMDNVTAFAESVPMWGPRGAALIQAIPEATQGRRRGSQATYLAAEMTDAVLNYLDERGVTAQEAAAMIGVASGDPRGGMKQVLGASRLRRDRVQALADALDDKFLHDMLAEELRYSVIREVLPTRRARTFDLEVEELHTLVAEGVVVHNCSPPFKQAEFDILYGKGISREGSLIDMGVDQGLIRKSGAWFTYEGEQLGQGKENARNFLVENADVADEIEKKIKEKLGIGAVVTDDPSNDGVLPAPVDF
YopH inh: YopH tyrosine phosphatase inhibitors, primary screen, biochemical, fluorescence Ex485/Em525; 140,000 tested, 0.16% active; AID 898, 2007; inhibition, %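 (about 10 µM by stock and volumes)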;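 active = inhibition of 50% or more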;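 note: controls were vehicle for no effect and minimum signal wells for full effect; inactives centre near -20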
Mtb H37Rv: M. tuberculosis H37Rv growth inhibitors, H37Rv strain (AID 1626); M. tuberculosis H37Rv growth inhibition; higher % means a stronger effect; inhibition, % at 10 µM, or IC50 in µM where a hit was titrated; 220,000 tested, 0.95% active;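 active = confirmed in a dose series; inconclusive = inhibition above 80% but not taken into the dose series; inactive = below 80% or under 30% at every dose of the series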;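 note: bacteria incubated seven days before Alamar blue readout; 0% = bacteria only wells and 100% = bacteria with antibiotic wells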
Mtb bLac sens: beta-lactam sensitization of Mtb H37Rv, H37Rv | M. tuberculosis H37Rv growth with meropenem, percent inhibition; hits of this screen are not shown here | inhibition, % at 25 µM | 330,000 tested, 0.27% active | AID 434955, 2010;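 active = about 74% or more and at least 40 points above the plate without the antibiotic, then above 30% in a dose series; inconclusive = first-round hits that could not be retested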;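 note: growth measured after seven days incubation then overnight dye step; 0% = bacteria only wells and 100% = bacteria with antibiotic; twin plates without the antibiotic show which effects depend on it; some results filed as inactive read as strong as hits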
Arbovirus anti: antivirals against arbovirus infection, primary screen, cell-based, full library, 10K replicate subset; arbovirus infection cell-based antiviral screen; inhibition, % at 10 µM; 200,000 tested, 0.37% active;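 active = inhibition from about 30%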;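 note: bluetongue infection of BSR cells; cell survival read as ATP light after 72 h; 0% = infected wells without compound and 100% = uninfected wells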
Arbovirus anti repeat: recorded beside Arbovirus anti, whose call it bears; inhibition, %; measured here: 10K subset replicate screen; many hits read low in the repeat;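 first of two repeat runs on a subset; 0% = infected and 100% = uninfected wells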
Starred values were filed as active, the others as inactive; ? = inconclusive; · = no result given. The list is partial. The share of hits here may be higher or lower than overall.

SMILES	RecA intein inh	YopH inh	Mtb H37Rv	Mtb bLac sens	Arbovirus anti	others
O=C(O)c1c2c(nc3ccccc13)/C(=C/c1ccc(O)cc1)CC2	-122.8	·	6.0%	1.9	12.5
COC(=O)/C(=C/c1ccco1)NC(=O)c1ccc(Br)o1	-5.4	·	3.1%	0.7	-0.8
Cc1occc1-c1nnc(SCCNCCO)o1	-0.5	·	-3.2%	0.1	3.1
Cc1ccc(CNC(=O)/C=C/c2ccccc2Cl)cc1	-1.4	-17.2	-13.2%	-2.5	-16.5
O=C(COC(=O)CC1CCCC1)Nc1cc2c(cc1Cl)C(=O)c1ccccc1C2=O	15.2	8.0	6.9%	5.9	-12.0
CC(=O)NCC(=O)OCC(=O)c1ccc(Br)cc1	1.4	-10.7	-10.4%	7.7	-4.0
CC1=NN(c2nc(-c3ccccc3)cs2)C(=O)C1	65.7*	-28.4	4.5%	5.8	18.7
COC(=O)c1cn(NC(=O)Cc2ccccc2OC)c(=O)c2ccccc12	-1.7	·	0.6%	-3.8	2.9
CCCCc1nc2sc3c(c2c(=O)n1NC(=O)c1ccco1)CC(C)(C)OC3	-0.8	·	-4.2%	-0.1	·
O=[N+]([O-])c1ccc(N=Nc2c(O)[nH]c3ccc(F)cc23)cc1	0.2	·	·	7.8	·
COc1cc(OC)cc(C(=O)Nc2cccc(-c3ccc4nncn4n3)c2)c1	-2.9	·	-9.7%	3.8	-5.6
COCC(C)NC(=O)CSc1nc(-c2ccccc2)c(-c2ccccc2)o1 (stereo not drawn)	6.9	-19.8	9.5%	1.4	-14.8
CCOC(=O)/C=C1\SCC(=O)N1CC(=O)NC(C)C	-0.3	-5.2	·	-4.6	6.6
CCCCC(CC)CNC(=O)CCCCn1c(=O)[nH]c2ccsc2c1=O (stereo not drawn)	-2.6	·	2.9%	-4.2	-16.0
Cc1cccc(NC(=S)N2CCN(Cc3ccccc3)CC2)c1C	-2.1	-10.1	-2.1%	3.7	4.7
Cc1ccc(NC(=O)CNc2ccc(N3CCOCC3)cc2)cc1S(=O)(=O)N(C)C	-6.8	·	-2.7%	-6.7	1.0
FC(F)(F)c1cnc(-c2cnc(-c3ccncc3)nc2)c(Cl)c1	0.5	·	-2.0%	-5.5	-14.3
Nc1nncn1C(=O)CCCOc1ccccc1	3.8	-8.4	-5.2%	1.5	-0.1
CCOc1ccc2nc(SC3CC(=O)N(c4ccccc4)C3=O)sc2c1 (stereo not drawn)	0.2	-38.5	-5.1%	41.3	-13.9
CCCC(CCC)=NNc1ccc(S(=O)(=O)Nc2ccccc2OC)cc1[N+](=O)[O-]	-2.1	-31.6	1.4%	-1.8	-3.8
CCOc1ccc(NC(=O)N2CC=C(n3c(=O)[nH]c4ccccc43)CC2)cc1	-2.8	5.8	9.6%	6.5	-11.9
COc1ccc(CCNC(=O)c2ccc(Br)cc2)cc1	1.6	·	·	5.6	·
CCOc1nc(C)ccc1-c1noc(-c2ccncc2)n1	3.0	0.1	5.4%	42.1	3.7
O=C(NNc1ccccn1)C(=O)NNS(=O)(=O)c1ccc(Cl)cc1	9.4	-27.9	·	42.2	-23.2
O=C(/C=C/c1cccs1)N1CCC2(CC1)Oc1ccc(F)cc1C(=O)C21CC(c2ccccc2)=NO1 (stereo not drawn)	5.9	·	-7.6%	33.7	·
OC(CNCc1cccc(Cl)c1)c1ccccc1 (stereo not drawn)	-1.0	·	6.4%	-8.3	4.3
CC(=O)Nc1ccc(NC(=O)Cn2cnc3c(nnn3Cc3ccc(F)cc3)c2=O)cc1	0.4	·	0.8%	-6.0	-1.9
C=C(C)C1Cc2c(C)nn(-c3ccccn3)c2C1 (stereo not drawn)	-2.0	-15.4	13.7%	39.6	11.1
Cc1cc(NC(=O)CSc2ccc3c(c2)OCCO3)no1	1.6	-39.9	-5.8%	0.0	5.7
CC(C)C(=O)NNC(=O)c1csc(-c2cccs2)n1	1.4	·	2.5%	0.7	·
O=C(Nc1cccnc1)c1cccc(S(=O)(=O)N2CCOCC2)c1	-0.4	-8.9	-3.3%	1.7	-0.9
CCOC(=O)CCc1c(C)n[nH]c1C	1.7	·	-5.0%	-6.0	4.5
COc1cc(/C=N/n2cnn(Cc3ccccc3Cl)c2=S)cc(OC)c1OC	-0.4	·	3.4%	5.8	2.3
O=c1c(-c2ccc([N+](=O)[O-])cc2)coc2c(O)c(O)ccc12	-1.8	·	-5.8%	-8.2	·
Cc1ccc(CNS(=O)(=O)c2c(C)nc3scc(C)n3c2=O)cc1	5.9	·	·	5.1	·
CCOC(=O)c1nn(-c2cccc(OC)c2)c2nc(Nc3ccccc3)cc(=O)n12	-1.1	-21.5	20.7%	87.4	-8.1
Cc1cc(C)n(Cc2ccccc2Cl)n1	1.2	-39.5	-9.2%	-3.3	2.4
CC(C)n1c(SCC(=O)Nc2ccccc2N2CCCCC2)nc2c1c(=O)n(C)c(=O)n2C	1.6	1.8	-7.8%	1.3	6.3
O=C(CN1CCOc2ccccc21)NCc1ccco1	-0.2	-8.1	-6.5%	?	-5.3	Arbovirus anti repeat=-10.4
O=C(c1ccc(OCC2CCCO2)cc1)N1CCc2ccccc2C1 (stereo not drawn)	-3.8	·	-6.9%	-4.3	18.0

For convenience, some entries already given:
SMILES	RecA intein inh	YopH inh	Mtb H37Rv	Mtb bLac sens	Arbovirus anti	others
FC(F)(F)c1cnc(-c2cnc(-c3ccncc3)nc2)c(Cl)c1	0.5	·	-2.0%	-5.5	-14.3
Nc1nncn1C(=O)CCCOc1ccccc1	3.8	-8.4	-5.2%	1.5	-0.1

New compounds follow
SMILES	RecA intein inh	YopH inh	Mtb H37Rv	Mtb bLac sens	Arbovirus anti	others
CCC(=O)Nc1cc(C(=O)OCC(=O)c2ccccc2)ccc1C	-1.5	-31.3	4.2%	-5.6	-0.6
Cc1ccc(/C=C2/N=C(c3ccccc3)NNC2=O)cc1	8.7	·	-7.5%	-0.4	·
O=c1[nH]c(=S)n(-c2ccc(Cl)cc2)c(O)c1/C=N/N1CCOCC1	-2.0	·	-7.9%	1.4	·
CCC(C)c1ccccc1NC(=O)C(C)N(C)Cc1cccc(OC)c1 (stereo not drawn)	11.2	·	11.0%	-8.5	-3.7
COc1ccc(Cl)cc1Nc1nc(N)c2ccccc2n1	-1.9	·	·	51.9	·
CCOC(=O)C1(CCOc2ccccc2)CCN(Cc2ccc(NC(C)=O)cc2)CC1	-0.3	·	0.0%	-3.0	-33.0
COc1ccc(C2C(C#N)=C(N)OC3=C2C(=O)CC(C)(C)C3)c(OC)c1OC (stereo not drawn)	4.0	-11.1	0.3%	-5.5	2.1
COc1ccc(C(c2nnnn2CCc2ccccc2)N2CCN(C3CCCC3)CC2)cc1 (stereo not drawn)	-2.3	-37.6	2.5%	-9.0	-24.9
O=Cc1ccc(N2CCCCC2)cc1	-2.9	·	-4.2%	-3.6	15.3
COCCSc1ccccc1C(=O)N1CCCC(C)C1 (stereo not drawn)	1.3	·	-2.7%	-2.7	4.7
Cc1nnc(SCc2cc(=O)[nH]c(N3CCCCC3)n2)s1	-2.0	-81.6	-1.4%	-11.8	·
Cc1cccc(N/C(N)=N/c2nc3c(c(=O)[nH]2)CCCC3)c1	0.2	31.4	0.3%	1.0	-10.3
N#Cc1ccccc1CSc1nc2ncc(Br)cc2[nH]1	0.7	-31.6	-1.2%	10.5	-18.0
CNc1cc(C)nc(N2CCOCC2)n1	1.1	·	-3.2%	2.6	·
COc1ccc(C(C)=O)c2c1OCCO2	-0.5	-35.4	-60.4%	3.8	-3.9
CC1(C)CC(=O)C=C(NCCc2ccc(S(N)(=O)=O)cc2)C1	-1.4	-32.7	-1.4%	-13.7	-1.2	Arbovirus anti repeat=1.9
O=C(COc1ccccc1)NNC(=S)NC(=O)c1ccc(Cl)cc1Cl	·	-19.5	55.9%	68.8	6.8
CC1(C)SC2c3ccccc3C(=O)N2[C@@H]1C(=O)NC1CC1 (stereo partly drawn)	1.8	·	·	2.8	·
COc1cccc(C(=O)Nc2ccc(C)cc2)c1	-3.3	-22.6	3.2%	-3.3	-0.5
O=c1[nH][nH]c(C(F)(F)F)c1C=NCc1cccs1	-1.9	·	3.1%	1.9	6.2
CC1=NNC(=O)C1CC(=O)N/N=C(/C)c1cccc([N+](=O)[O-])c1 (stereo not drawn)	4.8	·	-4.5%	0.2	2.6
CCc1ccc(NC(=O)C(=O)NCC2CCCO2)cc1 (stereo not drawn)	-2.6	·	-7.3%	-1.7	-6.2
FC(F)(F)c1ccc(N2CCOCC2)c(Nc2nc3ccccc3n3cnnc23)c1	0.0	-26.5	8.57µM*	95.1	-32.4
O=C(CN1C(=O)COc2ccc(S(=O)(=O)N3CCCCC3)cc21)NCc1ccc(Cl)cc1	0.9	·	·	-1.2	·
Cc1ccc(C(CNS(=O)(=O)c2ccc(C)cc2)N2CCN(C)CC2)cc1 (stereo not drawn)	1.1	·	·	-11.5	·
CCOC(=O)NN1C(=O)c2ccccc2NC12CCCC2	-8.7	·	-0.6%	17.8	9.2
O=c1[nH]c2ccccc2cc1CN(Cc1cccnc1)S(=O)(=O)c1ccc(Cl)cc1	4.4	·	·	-0.7	·
O=C(NS(=O)(=O)c1ccccc1Cl)c1ccc[nH]1	-3.9	-25.9	-6.0%	8.2	4.3
CC1CN(C)C(C)(C)CC1(O)c1ccccc1 (stereo not drawn)	6.0	-21.6	-3.3%	11.1	-7.9
Cc1nc2c(ccc3nc(NC(=O)Cc4ccccc4)sc32)s1	3.7	-20.3	·	70.0	-27.1
COc1ccc(OCC(=O)N2N=C(C(F)F)CC2(O)C(F)F)cc1 (stereo not drawn)	5.5	-23.2	1.7%	0.0	1.4
COc1ccc(CNC(=O)C2CCN(S(=O)(=O)N3CC(C)CC(C)C3)CC2)cc1 (stereo not drawn)	0.4	·	·	-1.4	·
S=c1[nH]nc(-c2ccn[nH]2)n1-c1ccccc1Cl	-1.3	·	4.4%	-2.1	·
COc1ccccc1C(=O)Nc1ccc(OCc2nnc3c4ccccc4c(C)nn23)cc1	-2.5	-27.4	9.4%	-0.1	-4.2
COc1ccc(-n2c(SCC(=O)Nc3ccc(C(=O)O)cc3)nnc2-c2cccs2)cc1	-0.6	-2.2	-13.9%	1.2	3.6
Cc1cccc(C(=O)NCCNc2nc3cc(C)c(C)cc3cc2C)c1	2.1	·	78.6%	35.3	-21.9
CCC(C)(C(=O)NC1CCCC1)N(C(=O)c1ccccn1)c1ccc(C)cc1 (stereo not drawn)	1.1	-17.6	-7.7%	11.3	9.8
Cc1c(Cl)cccc1-c1ccc(CNCc2ccccn2)o1	2.5	·	·	96.4	·
COc1ccc(OC)c(S(=O)(=O)n2nnc3cc(Cl)ccc32)c1	0.9	-33.3	5.6%	-0.9	7.0
O=C(NCCc1ccc(Cl)cc1)C1CCC(CNc2nc(=S)[nH]c3ccccc23)CC1 (stereo not drawn)	-1.8	·	-1.3%	-1.1	-7.6

Next part, overlapping the part above by 2 compounds.
SMILES	RecA intein inh	YopH inh	Mtb H37Rv	Mtb bLac sens	Arbovirus anti	others
COc1ccc(OC)c(S(=O)(=O)n2nnc3cc(Cl)ccc32)c1	0.9	-33.3	5.6%	-0.9	7.0
O=C(NCCc1ccc(Cl)cc1)C1CCC(CNc2nc(=S)[nH]c3ccccc23)CC1 (stereo not drawn)	-1.8	·	-1.3%	-1.1	-7.6
COc1cc(/C=C/C(=O)OCC(=O)N2CCOCC2)ccc1OCC#N	-0.6	·	4.5%	-3.4	6.0
CCc1nc2ccc(C(=O)NC3CCC(C)CC3)cc2nc1CC (stereo not drawn)	-0.5	·	·	54.0	·
CC1=C(C)CC(C(=O)Nc2nc(-c3ccc(F)cc3)c(C)s2)C(C(=O)O)C1 (stereo not drawn)	0.6	-20.1	1.7%	33.7	2.1
CN(C)C1=C(Cl)C(=O)N(c2ccc(Cl)c(Cl)c2)C1=O	14.4	·	3.8%	·	·
Cc1ccc(-c2noc(COc3ccc4c(c3)OCO4)n2)cc1	·	-17.3	4.7%	-1.7	-11.4
COc1cccc(-c2ccc(NC(=O)C3CCCN(Cc4cnn(C)c4)C3)cc2)c1 (stereo not drawn)	2.4	·	·	-5.8	·
N#Cc1c(-c2ccco2)ccn(Cc2cccc(F)c2)c1=O	-3.9	·	1.3%	-4.3	13.1
CCn1c2ccccc2c2cc(NC(=O)c3ccc([N+](=O)[O-])cc3)ccc21	-9.1	-24.9	3.1%	3.2	-2.3
O=C(CSc1ccc(-c2cccs2)nn1)Nc1ccccc1	-0.6	·	0.9%	-0.5	3.0
CN1CCN(Cc2nnc3n2-c2ccc(Cl)cc2C(c2ccccc2)=NC3)CC1	-1.2	8.7	-4.7%	6.1	-4.7
Cc1cc(C(=O)C(=O)O)c(C)n1-c1ccc(Cl)c(Cl)c1	6.1	·	4.1%	-5.1	9.9
Cc1cc(C(F)(F)F)nn1CC(=O)N1CCOCC1	-2.8	-6.5	-5.3%	-4.1	16.3

Screens from PubChem.
